Ecoli growth: E. coli growth inhibition; Escherichia coli growth, OD600, 23 h; hits give low values; OD600 absorbance (test concentration not listed); 330,000 tested, 0.21% active; AID 1053175;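 active means OD600 absorbance below the run mean of sample wells minus 3.6 SD, in any replicate, cut at about 0.56 in these data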;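 further: stock transfer was 300 nL into about 60 µL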
UCH37 DUB inh: inhibitors of human deubiquitinating enzyme UCH37 | Q9Y5K5 | purified proteasome/UCH37, Ub-AMC cleavage fluorescence | inhibition, % (concentration not given with the values) | 330,000 tested, 0.33% active | AID 588478;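 active means mean of two replicates above 20%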;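 further: 0% = compound-free wells with enzyme and 100% = wells lacking proteasome; stock transfer was 100 nL into about 20 µL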
Target sequence (Q9Y5K5 whole entry, looked up): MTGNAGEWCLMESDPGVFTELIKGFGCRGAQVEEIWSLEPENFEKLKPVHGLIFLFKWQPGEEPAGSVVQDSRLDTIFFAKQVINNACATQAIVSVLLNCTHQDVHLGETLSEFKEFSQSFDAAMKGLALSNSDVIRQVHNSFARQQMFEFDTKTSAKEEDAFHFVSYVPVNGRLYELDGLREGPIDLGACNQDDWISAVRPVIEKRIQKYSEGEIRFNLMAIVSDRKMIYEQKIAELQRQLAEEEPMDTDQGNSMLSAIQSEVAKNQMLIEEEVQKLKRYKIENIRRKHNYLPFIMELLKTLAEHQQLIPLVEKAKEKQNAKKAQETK
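Reagent: Ub-AMC substrate; assay system: Proteasome-associated human UCH37 deubiquitinase; controls: no-proteasome and no-compound wells; read-out: % inhibition of Ub-AMC cleavage fluorescence; timing: 30 min preincubation with enzyme, 25 min cleavage at room temperature; signal: AMC fluorescence from Ub-AMC cleavage, excitation 355 nm, emission 460 nm; buffer or medium: Tris-HCl pH 7.4 plus ovalbumin, ATP-MgCl2, DTT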
An asterisk follows results filed as active. Some of the compounds tested (hit frequency here may not be typical).

| structure | Ecoli growth | UCH37 DUB inh |
| --- | --- | --- |
| O=C(NN=Cc1oc(O)c2ccccc12)c1ccccc1 | 0.7 | 2.7 |
| COC(=O)NN=Cc1cn(CCOc2cccc(OC)c2)c2ccccc12 | 0.67 | 4.8 |
| CC(=NNC(=O)c1ccccn1)c1c[nH]c2ccccc12 | 0.63 | 11 |
| COc1ccc(C=NNC(=O)C2c3ccccc3Oc3ccccc32)c(OC)c1 | 0.72 | 8.8 |
| COc1ccc(C=NNC(=O)c2cccnc2)cc1O | 0.66 | 8.8 |
| Cc1nonc1C(=O)NN=Cc1cc2c(cc1Br)OCO2 | 0.69 | -1.2 |
| Cc1cc(NN=Cc2ccccc2O)c2ccccc2n1 | 0.62 | 8.1 |
| COC(=O)c1[nH]c2ccccc2c1NC(=O)CCN1CCN(C2CCCCC2)CC1 | 0.67 | -5.0 |
| Cc1ccc(NN=C2CCS(=O)(=O)c3sccc32)cc1 | 0.71 | 1.1 |
| Cc1cc(C(=O)NN=Cc2ccc(-c3ccc([N+](=O)[O-])cc3C)o2)n[nH]1 | 0.65 | 0.8 |
| CC(=NNC(=S)NC1CCCCC1)c1ccc(OC(F)F)cc1OC(F)F | 0.72 | 2.2 |
| CC(C)C12CN3CCN(CC(C3)C1=NNC(=O)Nc1ccccc1)C2 | 0.63 | 1.7 |

6 entries out of the list, ordered by SMILES length, low to high:
| structure | Ecoli growth | UCH37 DUB inh |
| --- | --- | --- |
| CC(=NNC(=O)c1ccccn1)c1c[nH]c2ccccc12 | 0.63 | 11 |
| COC(=O)NN=Cc1cn(CCOc2cccc(OC)c2)c2ccccc12 | 0.67 | 4.8 |
| CC(=NNC(=S)NC1CCCCC1)c1ccc(OC(F)F)cc1OC(F)F | 0.72 | 2.2 |
| COc1ccc(C=NNC(=O)C2c3ccccc3Oc3ccccc32)c(OC)c1 | 0.72 | 8.8 |
| COC(=O)c1[nH]c2ccccc2c1NC(=O)CCN1CCN(C2CCCCC2)CC1 | 0.67 | -5.0 |
| Cc1cc(C(=O)NN=Cc2ccc(-c3ccc([N+](=O)[O-])cc3C)o2)n[nH]1 | 0.65 | 0.8 |

Carrying on.
| structure | Ecoli growth | UCH37 DUB inh |
| --- | --- | --- |
| Brc1ccccc1C=NN1CCCCC1 | 0.7 | 1.7 |
| CN(C)C=NC(=S)Nc1ccc(Cl)c(Cl)c1 | 0.64 | 2.4 |
| CSc1nsc(NN=Cc2ccccc2)c1C#N | 0.71 | -22 |
| COc1cc(C=NNc2nncn2N=Cc2ccc(O)c(OC)c2)ccc1O | 0.72 | 6.3 |
| CCC1=[N+]([O-])C(C)(C(C)=NO)N(O)C1(C)C (stereo unspecified) | 0.73 | 5.5 |
| O=C(COc1cccc2cccnc12)NN=Cc1cccn1-c1ccc(F)cc1 | 0.69 | 3.9 |
| CCn1c2ccccc2c2cc(C=NNC(=O)c3cc(O)cc(O)c3)ccc21 | 0.63 | -194 |
| Cc1occc1C(=O)NN=Cc1ccc(Br)s1 | 0.65 | 6.6 |
| CCCCCCCC(=O)NN=Cc1cccnc1 | 0.63 | 3.7 |
| C=CCc1ccc(OCCOc2cccc(C=Nn3cnnc3)c2)c(OC)c1 | 0.74 | 5.7 |
| O=[N+]([O-])c1ccc(Oc2ccc(C=NO)cc2)nc1 | 0.72 | 4.3 |
| CC1CCCC(=NNC(=O)c2ccccc2-n2cccc2)C1 (stereo unspecified) | 0.69 | 2.3 |

Next section:
| structure | Ecoli growth | UCH37 DUB inh |
| --- | --- | --- |
| COc1ccccc1C(=O)NCC(=O)NN=Cc1cc(Br)ccc1OC(=O)/C=C\c1ccco1 | 0.71 | 0.6 |
| CC(CC(=O)Nc1ccc(Cl)cc1Cl)=NNC(=O)c1ccco1 | 0.68 | 5.0 |
| Fc1ccc(NN=Cc2ccncc2)c(F)c1 | 0.68 | 5.4 |
| CC(CC(=O)Nc1cccnc1)=NNC(=O)C(C)Oc1ccc(Cl)cc1Cl (stereo unspecified) | 0.65 | 2.3 |
| COc1ccc([N+](=O)[O-])cc1C=NNc1nn[nH]n1 | 0.66 | 9.0 |
| C=CCNC(=S)NN=Cc1ccc(N(CC)Cc2ccccc2)cc1 | 0.77 | -68 |
| CC1(C)[N+]([O-])=C2C(=NO)c3ccccc3C2=[N+]([O-])C1(C)C | 0.76 | 0.5 |
| CC12CCC(C(=O)NN=Cc3ccc(O)cc3O)(OC1=O)C2(C)C (stereo unspecified) | 0.69 | -0.4 |
| Cc1ccc(CC2S/C(=N/N=Cc3ccco3)NC2=O)cc1 (stereo unspecified) | 0.72 | 5.1 |
| Cc1ccc(S(=O)(=O)N=c2ccc(Cl)cn2C(F)F)cc1 | 0.68 | 1.6 |
| CON=CC(C(C)=O)C(=O)Nc1ccc(Cl)cc1Cl (stereo unspecified) | 0.67 | -1.3 |
| Cc1ccc(C=c2sc3n(c2=O)CCCN=3)o1 | 0.73 | 8.3 |

The listing continues:
| structure | Ecoli growth | UCH37 DUB inh |
| --- | --- | --- |
| O=C(NN=Cc1ccccc1F)c1ccc(COc2ccccc2Cl)o1 | 0.69 | 1.1 |
| CN(Cc1c(C(=O)NN=Cc2cccc(F)c2)nnn1-c1nonc1N)C1CCCCC1 | 0.7 | 6.7 |
| CCOc1cc(C=NNc2nncc(-c3ccccc3)n2)ccc1O | 0.71 | 5.7 |
| S=c1[nH]nc(-c2cc(-c3ccccc3)n[nH]2)n1N=Cc1ccccc1 | 0.68 | -3.5 |
| COc1cccc(C=NNC(=O)c2c(-c3ccccc3)noc2C)c1O | 0.68 | 2.9 |
| O=C(CSc1ccc(Cl)cc1)NN=Cc1ccc([N+](=O)[O-])o1 | 0.55 | 4.9 |
| CCOc1ccc(C=NNC(=O)CC(=O)NCc2ccccc2)cc1 | 0.67 | 1.0 |
| COc1ccc(-n2c(NC(=O)c3ccc(Br)o3)c(C#N)c3nc4ccccc4nc32)cc1 | 0.62 | -90 |
| COc1ccc(C(C)=NNC(=O)C(c2ccncc2)N2CCOCC2)cc1 (stereo unspecified) | 0.64 | 2.9 |
| COCCN=c1scc(C)n1N=CC1CC2C=CC1C2 (stereo unspecified) | 0.71 | 3.4 |
| CCOc1ccc(C=NNS(=O)(=O)c2ccc(C)cc2)cc1OC | 0.7 | 4.3 |
| CC(CC(=O)NCCN1CCOCC1)=NNC(=O)c1ccncc1 | 0.69 | 3.2 |

The list goes on.
| structure | Ecoli growth | UCH37 DUB inh |
| --- | --- | --- |
| COc1ccc2[nH]c3c(=O)n(N=Cc4ccc(OC)c(CN5CCCC5)c4)c(C)nc3c2c1 | 0.71 | 1.9 |
| CCc1c(C(=O)NN=Cc2cccs2)nnn1-c1nonc1N | 0.62 | 2.6 |
| NS(=O)(=O)c1ccc(-c2ccc(C=NNC(=O)c3ccc([N+](=O)[O-])cc3)o2)cc1 | 0.75 | 0.0 |
| S=c1[nH]nc(-c2cccc(Cl)c2)n1N=Cc1ccc(-c2ccccc2Br)o1 | 0.71 | 8.0 |
| CNC(=S)NN=Cc1ccc(-c2ccc(C(=O)O)cc2)o1 | 0.7 | -50 |
| N#CC(=NO)c1nc2ccccc2[nH]1 | 0.64 | -1.6 |
| CCOc1ccc(C=NNc2nc(N3CCCC3)nc(N3CCCC3)n2)cc1OC | 0.64 | 4.0 |
| Cc1ccc(S(=O)(=O)Oc2ccccc2C=NN=C(N)N)cc1 | 0.69 | 2.5 |
| Fc1cnc(NN=Cc2ccc(-c3ccc(Br)cc3)o2)nc1N1CCOCC1 | 0.67 | -38 |
| CS/C(N)=N/N=Cc1cc(C)ccc1O | 0.7 | 8.1 |
| CC(Cn1nnc([N+](=O)[O-])n1)=NNC(=O)c1ccc(O)cc1 | 0.69 | -0.5 |
| Cc1c(C(=O)NN=Cc2cccnc2)nnn1-c1nonc1N | 0.68 | 1.2 |

The results go on:
molecule	Ecoli growth	UCH37 DUB inh
CCOc1ccc(-c2cc(C(=O)NN=Cc3ccc(O)cc3)c3ccccc3n2)cc1	0.67	-77
CNC(=S)N=C(Nc1ccc(C)cc1)c1ccccc1	0.66	1.7
CC(CC(C)(C)C1CCCCC1)=NNC(N)=S	0.73	1.0
CC(=NNC(=O)CC(C)C)c1c(C(F)(F)F)[nH]n(-c2nc3ccccc3s2)c1=O	0.72	3.9
Oc1cccc(C=NNc2cc(N3CCOCC3)nc(N3CCOCC3)n2)c1	0.72	8.3
CCOC(=O)Cn1cc(C=NN2C(=O)C3C4C=CC(C4)C3C2=O)c2ccccc21 (stereo unspecified)	0.69	1.4
O=C(NN=Cc1cccc(OC(=O)c2ccco2)c1)c1ccc(F)cc1	0.69	2.4
Cc1ccc(C=NNc2nc(N3CCOCC3)nc(N3CCOCC3)n2)o1	0.64	8.8
O=C1CC(C(=O)Nc2ccc(Br)cc2)S/C(=N\N=Cc2ccco2)N1 (stereo unspecified)	0.71	8.3
COc1cccc(C=NNC(=O)CNC(=O)c2ccc(S(=O)(=O)N3CCCC3)cc2)c1OC	0.71	-5.9
O=C(NN=Cc1ccc2c(c1)OCO2)c1cc(-c2ccncc2)nc2ccccc12	0.69	5.6
O=C(CSc1nnnn1-c1cccc(Cl)c1)Nc1ccc2c(c1)CCC2	0.7	2.2
COc1ccc(C=NNC(=O)CNc2ccc(Br)cc2)c(C(=O)O)c1OC	0.7	1.6
Fc1ccc(C=Nn2cnn(Cc3ccccc3Cl)c2=S)cc1	0.73	3.4
CCOC(=O)C1=C(C)N=c2sc(=Cc3ccc(OCC(=O)O)cc3)c(=O)n2C1c1ccccc1OC (stereo unspecified)	0.66	13
COc1ccc(C=NN(C)c2cc(=O)n(C)c(=O)[nH]2)cc1OC	0.7	7.9
COc1cc(C=NNc2cccc(C)c2)ccc1OC(=O)c1ccco1	0.67	1.7
CCC(=NNS(C)(=O)=O)c1ccccc1	0.66	4.3
CC(=NNC(=O)c1ccccc1F)c1cccc(NC(=O)c2ccc(C)cc2)c1	0.68	3.7
FCCCOc1ccc(C=NOCc2c(Cl)cccc2Cl)cc1	0.73	2.4

Continued:
molecule	Ecoli growth	UCH37 DUB inh
C=CCOc1ccc(C=NNC(=O)c2cc3c(OC)cc(OC)cc3[nH]2)cc1	0.64	-66
CN(N=Cc1ccncc1)C1=NCCN1	0.66	5.3
O=C(O)c1ccc(NN=Cc2cn(Cc3ccc(F)cc3)c3ccccc23)cc1	0.67	-74
Cc1ccc(CN2CCN(N=Cc3cc(Br)cc(Br)c3O)CC2)c(C)c1	0.71	3.2
CC(=NNc1cc(C)nc(NCc2ccccc2)n1)c1ccc([N+](=O)[O-])cc1	0.68	6.4
O=C(Nc1ccccc1Cl)ON=C(c1ccccc1)c1ccccn1	0.67	3.2
CCOC(=O)COc1cc(Br)c(C=NNc2ccccc2)cc1OC	0.72	-39
CCN(CC)c1ccc(C=NNC(=O)OC(C)(C)C)cc1	0.64	-45
CN(C)S(=O)(=O)c1cccc(NC(=S)NN=Cc2ccco2)c1	0.64	9.0
CON=C(Cn1ncc(N2CCOCC2)c(Br)c1=O)c1ccc(Cl)cc1	0.69	2.9
CC(=NNC(=O)c1ccncc1)c1ccc(NC(=O)c2ccc(Cl)cc2)cc1	0.71	-7.3
O=C(NN=Cc1ccccc1OC(F)F)C1=COCCO1	0.65	-0.3
Nc1nonc1-n1nnc(C(=O)NN=Cc2cc(Br)cs2)c1-c1ccccc1	0.67	2.5
CC(CC1CC(COCC(C)C)OC1=O)=NNC(N)=S (stereo unspecified)	0.68	4.1
Cc1c(O)ccc(C(Cc2ccc3ccccc3n2)=NN)c1O	0.63	4.9
O=C(NN=Cc1ccco1)c1cncc(Br)c1	0.68	3.9
CC(=NNC(=O)CNC(=O)C(c1ccccc1)c1ccccc1)c1ccc(C)cc1	0.72	0.5
CC(=NNc1ccccc1)c1c(O)cc(C)oc1=O	0.65	2.2
COc1ccccc1/C=C/C=Nn1c(COc2ccccc2)n[nH]c1=S	0.72	-0.5
Cc1ccccc1C=NN1C(=O)CSC1=S	0.65	10.0

Other results:
molecule	Ecoli growth	UCH37 DUB inh
CC1CCCCC1=NNC(=S)Nc1cccnc1 (stereo unspecified)	0.73	7.6
O=C(O)c1cc(-c2ccncc2)nc2ccc(F)cc12	0.65	-17
COc1cccc(C(C)=NNC(=O)c2ccc(N(C)C)cc2)c1	0.71	3.9
C=CCn1cnc2c(c1=O)c1nc3ccccc3nc1n2N=Cc1ccccn1	0.67	-69
CC(=NNC(N)=S)c1ccncc1	0.65	2.3
COc1ccccc1C(C)=NNC(=O)c1nnn(-c2nonc2N)c1C(C)C	0.64	1.4
COc1ccc(-c2ccc(C=NNC(=O)c3cccnc3)o2)c([N+](=O)[O-])c1	0.64	6.2
COc1ccccc1C=NNC(=O)c1nnn(-c2nonc2N)c1-c1ccccc1	0.68	-2.8
CC(=NNC(=O)c1ccc(N)cc1)C1CC1	0.64	-0.5
CN(CCCCCCCCC(=O)C=NO)Cc1ccccc1	0.65	0.7
CCOC(=O)CC(C)=NNC(=O)CNc1cccc(Cl)c1C	0.7	-0.6
NC(COc1ccc(Cl)cc1Cl)=NO	0.62	0.5
Cc1cc(C)c2c(c1)C(=NNc1ccc(S(N)(=O)=O)cc1[N+](=O)[O-])CCC2	0.7	6.8
COc1ccc(C=NNC(=O)c2ccoc2C)cc1CN1CCN(c2ccc(F)cc2)CC1	0.68	-0.1
Fc1cccc(C=Nn2c(C3CCCCC3)n[nH]c2=S)c1	0.68	1.8
COc1ccc(C=NNC(=O)c2[nH]c3ccc(Br)cc3c2-c2ccccc2)cc1	0.71	-30

Assay outcomes deposited in PubChem by ICCB-Longwood Screening Facility, Harvard Medical School.
